# Assay outcomes as filed in PubChem.
# AmpC inh no det: Promiscuous and Specific Inhibitors of AmpC Beta-Lactamase (assay without detergent); AmpC nitrocefin hydrolysis, absorbance 480 nm, no detergent; potencies from a single point are estimates; hit rate 1.8% among 71,000; Potency, µM (doses to about 28.7 µM), for inactives: at the top dose activity change, negative = inhibition; P00811; AID 585, 2007; active = falling curve, for most hits resting on a single point; inconclusive = weak or doubtful change; inactive = flat or rising curve; note: % of control where 0% means no effect; about half of the hits show no inhibition at the top dose; a quarter of the inactives give rising signals
# Target sequence (P00811 whole entry, looked up): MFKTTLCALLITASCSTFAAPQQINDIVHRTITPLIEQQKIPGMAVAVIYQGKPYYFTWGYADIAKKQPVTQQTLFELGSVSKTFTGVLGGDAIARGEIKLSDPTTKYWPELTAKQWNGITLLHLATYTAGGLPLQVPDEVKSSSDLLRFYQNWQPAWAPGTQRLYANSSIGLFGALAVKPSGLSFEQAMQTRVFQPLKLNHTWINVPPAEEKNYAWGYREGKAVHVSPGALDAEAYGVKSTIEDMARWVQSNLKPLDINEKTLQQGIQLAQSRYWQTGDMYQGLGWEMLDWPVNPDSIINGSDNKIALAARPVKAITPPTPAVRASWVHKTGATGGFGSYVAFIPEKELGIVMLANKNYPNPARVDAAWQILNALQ
#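 AmpC, 20 mM phosphate pH 7.0; 15 min cpd preinc, RT; start with nitrocefin (800 uM stock); A480 kinetic read, 20 s intervals, 4 min. No-enzyme wells = negative control.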
# * hit, by the source's call; [ ] = another dose, or the depositor's remark. Potency is the fitted concentration of half-maximal effect. The list is partial, so the mix of outcomes need not match the whole.
SMILES,AmpC inh no det
COc1cc(OC)c(C2C(C(=O)N3CCOCC3)=C(C)NC3=C2C(=O)CC(C)(C)C3)cc1OC (stereo not drawn),2%
COc1ccc(-n2nc(C(=O)N3CCN(c4ccc(F)cc4)CC3)c3ccccc3c2=O)c(OC)c1,101%
COC(=O)c1ccc(NC(=O)c2ccccc2NS(C)(=O)=O)cc1,-3%
CCCC1(C(=O)OC)C=C2C(=C(C(C)C)C(=O)C2C)CN1 (stereo not drawn),36%
COc1cccc(-n2c(Cc3cc(=O)[nH]c(=O)[nH]3)nnc2SC(C)C)c1,4µM*[single pt active]
CC(NC(=O)C1CCC1)c1ccc(Cl)cc1 (stereo not drawn),2%
C[C@]1(C(=O)NCCCNc2ncc(C(F)(F)F)cc2Cl)C=C[C@@H](Cc2ccccc2)N1C(=O)c1ccccc1,82%
CCOc1ccc(N/C(SC)=C(/C#N)C(N)=O)cc1,6%
CC(=O)Nc1nc2ccccc2n1CCN(C)C,8%
O=C(O)CCC(=O)Nc1ccc(Br)cn1,1%
COc1nc(N)nc(CC(=O)C2CC2)n1,-7%
CC(C1CC1)N(C(=O)NC1CCS(=O)(=O)C1)c1ccccc1 (stereo not drawn),8%
Nn1c(SCC(=O)N2CCOCC2)nnc1-c1ccc(Cl)cc1Cl,-3%
CN(CC(=O)NC1CCCc2ccccc21)S(=O)(=O)c1ccc2c(c1)c(=O)n(C)c(=O)n2C (stereo not drawn),38%
COc1ccc2c(c1)c(CC(=O)O)c(C)n2C(=O)c1ccccc1,1%
CC(C)Sc1nnc([C@@H](N)Cc2c[nH]c3ccccc23)o1,20%
Cc1ccc2c(CC(=O)OCc3nc(N)nc(Nc4ccccc4C)n3)coc2c1,54%
C[C@H](NC(=O)Nc1ccc2c(c1)OCCO2)C(=O)O,-4%
CCSc1sccc1C1C(C#N)=C(N)N(c2cccnc2)C2=C1C(=O)CCC2 (stereo not drawn),43%
COCCn1c(CCC(=O)O)nc2c1c(=O)[nH]c(=O)n2CC(C)C,7%
NC(=O)C1CCN(C(=S)c2cccs2)CC1,-5%
O=C(O)Cn1cc(C(=O)c2cccs2)c2ccccc21,-1%
CCOc1ccc(S(=O)(=O)NCCC(=O)NC2=NCCS2)cc1,-1%
CC(C)C(=O)Nc1ccc(NC(=O)c2ccccc2Cl)nc1,-7%

# Continued, starting with the last 2 of the part before.
SMILES,AmpC inh no det
CCOc1ccc(S(=O)(=O)NCCC(=O)NC2=NCCS2)cc1,-1%
CC(C)C(=O)Nc1ccc(NC(=O)c2ccccc2Cl)nc1,-7%
O=C1C2CC=CCC2C(=O)N1CC(=O)N(Cc1ccccc1)C1CCS(=O)(=O)C1 (stereo not drawn),14%
COC(=O)CCCC(=O)Nc1c(F)c(F)c(F)c(F)c1F,5%
CCOC(=O)Cc1nnc(NC(=O)C(CC)Sc2nnc3c4ccccc4n(C)c3n2)s1 (stereo not drawn),137%
O=C(Cn1cnc2c(cnn2-c2ccccc2)c1=O)N1CCCc2ccccc21,27%
CN1CCN(c2ncc3nc(-c4cn(C)c5ccccc45)c(=O)n(C[C@H]4CCCO4)c3n2)CC1,93%
CCN1CCN(Cc2ccc(NC(=O)CC3Oc4ccc(C)cc4NC3=O)cc2)CC1 (stereo not drawn),13%
CCCOC(=O)CSc1nnc(-c2ccc(Cl)cc2Cl)o1,15%
Cc1cc(C(=O)N2CCN(c3ncccn3)CC2)c2cc(F)ccc2n1,14%
CC1=C(C(=O)NC(C)C)C2(CCC(C)CC2)OC1=O (stereo not drawn),4µM*[single pt active]
CC(=O)NCCNc1ncncc1-c1ccccc1CN(C)C,1%
O=CN(CCN(C=O)CN1CCCCC1)CN1CCCCC1,-1%
COc1ccc(NCc2n[nH]nc2-c2ccccc2)cc1Cl,-21%
COc1cc(C2c3c(oc4ccccc4c3=O)C(=O)N2Cc2ccncc2)ccc1O (stereo not drawn),16%
Cc1cc(C(=O)COc2cccc(-n3cnnn3)c2)c(C)n1-c1ccccc1,3%
COC(=O)c1ccc(COc2ccc(C3C4=C(CCCC4=O)Nc4onc(C)c43)cc2)cc1 (stereo not drawn),19%
O=C(CSc1ccc2nnc(-c3cccnc3)n2n1)NCC1CCCO1 (stereo not drawn),0%
CC1(C)CC(=O)C2=C(C1)NC(=O)CC2c1cc2c(cc1Br)OCO2 (stereo not drawn),-6%
COc1cc(OC)cc(C(=O)Nc2ccccc2NC(C)=O)c1,-2%
O=c1c(-c2cc(F)cc(F)c2)nc2cnc(Nc3ccccc3)nc2n1C[C@H]1CCCO1,-2%
C=CCc1ccc(OC)c(OC)c1,-5%
CCN(CC(=O)NCc1ccccn1)S(=O)(=O)c1ccc(Cl)cc1,9%
COC(=O)c1c(F)c(F)c(N2CCOCC2)c(F)c1F,1%
O=C(c1ccco1)n1c(=S)nc2ccccn21,-10%
CC(=O)Nc1ccc(C2Nc3ccccc3C(=O)N2C2CCCCC2)cc1 (stereo not drawn),3%
Cc1ccc2c(c1)nnn2C1CCN(S(=O)(=O)c2ccc(C(=O)N(C)C3CCCCC3)cc2)CC1,84%
COC(=O)[C@@]1(Cc2ccccc2)[C@H]2c3cc(C(=O)N4CCCC4)n(CC4CC4)c3C[C@H]2CN1C(=O)c1ccccc1,162%
CC1CCCCC1NC(=O)CSc1nnc(N)s1 (stereo not drawn),8%
O=C(NCC1CCCO1)C1CCCN(c2ncccn2)C1 (stereo not drawn),-2%
CC1CCCC(NC(=O)CSc2nnc(N)s2)C1C (stereo not drawn),-8%
CC(=O)C1=C(C)NC(SCC(=O)c2ccccc2)=C(C#N)C1c1ccco1 (stereo not drawn),-20%
O=C(Nc1ccc(F)cc1)N(Cc1nnc2n1CCCCC2)c1ccccc1,6%
CCCCCCCCCCCCCCCCCCNC(=O)OC[C@@H](COP(=O)([O-])OCC[n+]1ccsc1)OC,31%
CCn1c(C(=O)N2CCC(C(=O)NCCCSC3CCCCC3)CC2)cc2sccc21,138%
CCOc1ccc(N(C)S(=O)(=O)c2ccc3[nH]cc(C(=O)NCC4CCCO4)c(=O)c3c2)cc1 (stereo not drawn),137%
Cc1c(NC(=O)CN2CCN(C(c3ccccc3)c3ccccc3)CC2)c(=O)n(-c2ccccc2)n1C,102%
COc1cc(NC(=O)CN(C)S(=O)(=O)c2ccc(C)cc2)cc(OC)c1,-7%
O=C(Cn1cc2c(n1)CCCC2)NC1CCCCCC1,13%
Cc1cc(C)c(C2C(C#N)=C(N)Oc3n[nH]c(C)c32)cc1CN1CCCC1 (stereo not drawn),-1%
Cc1ccc(Cn2ccc(NC(=O)c3nc4ncccn4n3)n2)cc1,28%
Cn1cccc1CNCCc1ccccc1F,-12%
CCOc1ncccc1C(=O)Nc1ccc2c(C)cc(=O)oc2c1,17%
CSc1ccc(S(=O)(=O)Nc2ccc(N3CCOCC3)c(Cl)c2)cc1,-14%
Cc1cccnc1NC(=O)COc1ccc2oc3c(c2c1)CCCC3,74%
c1ccc(-c2nnc(CSc3nnc(-c4cccs4)o3)o2)cc1,2%
Cc1cc(N2CCOCC2)nc2ccc(NC(=O)CCC(=O)N3CCC4(CC3)OCCO4)cc12,54%
O=C(NCc1cccnc1)c1ccc(CS(=O)(=O)Cc2ccc(Cl)cc2)o1,16%
CCCCCl,-1%
C[C@@]12CC[C@H]3[C@@H](CC=C4C[C@H](OS(=O)(=O)O)CC[C@]43C)[C@H]1CCC2=O,5%
CCS(=O)(=O)NCCCCc1ccccc1,0%
Cc1ccc2[nH]c(=O)c(CN(Cc3ccc4c(c3)OCO4)Cc3nnnn3C3CCCC3)cc2c1,62%
CC(C)C(=O)N(c1ccc(F)cc1)C1C=CS(=O)(=O)C1 (stereo not drawn),-9%
Cc1cc(C(=O)Nc2cccnc2)no1,-12%
CNc1nc(SC)nc(N2CCOCC2)n1,-1%
O=C(Nc1ncnc2sc3c(c12)CCCCC3)c1ccco1,5%
CCOc1cc(C)c(C(C)C)cc1S(=O)(=O)n1ccc(C)n1,41%
C[C@@H]1[C@H](C)CC[C@@]2(C(=O)O)CC[C@]3(C)C(=CC[C@H]4[C@@]5(C)CC[C@@H](O)C(C)(C)[C@@H]5CC[C@@]43C)[C@@H]12,3%[12.8 µM]
CCOc1ccc(CCNC(=O)C2CCCN(c3nn4c(=O)cc(C)nc4s3)C2)cc1 (stereo not drawn),56%
CC1(C)C/C(=N\O)c2cc3c(nc2C1)CCCC3,-1%
Cc1cc(C)c(NC(=O)CCCN2CCOCC2)c(C)c1,-7%
COc1ccc2[nH]c(=O)c(CN(C(=O)c3ccccn3)C3CCCCC3)cc2c1,30%
# Other compounds.
SMILES,AmpC inh no det
CCOC(=O)c1sc(NC(=O)c2ccc(Br)o2)cc1C,-23%
CC(Oc1ccc(Cl)cc1Cl)C(=O)Nc1ncccn1 (stereo not drawn),33%
COc1ccc(-n2nnnc2Sc2ccc(S(=O)(=O)N3CCOCC3)cn2)cc1,43%
O=C(O)CCC/C=C\C[C@@H]1CO[C@H](C(F)(F)F)O[C@@H]1c1ccccc1O,13%
COCCN(CC(=O)NC1CCCCC1)C(=O)CSc1nc2ccccc2o1,68%
CCOC(=O)C(NC(=O)CC)(Nc1sc2c(c1C(=O)OC)CCN(C)C2)C(F)(F)F (stereo not drawn),12%
CC1CN(c2nc3ccccc3nc2C(C#N)C(=O)NC2CCCCC2)CC(C)O1 (stereo not drawn),74%
CCOC(=O)N1CCN(c2c(NCC3CCN(Cc4cccc(C)c4)CC3)c(=O)c2=O)CC1,4µM*[single pt active]
O=c1c(CCc2ccccc2)nc2cncnc2n1Cc1ccccc1,8%
CC(C)CC(c1nnnn1C1CCCC1)N1CCN(c2ccccc2F)CC1 (stereo not drawn),50%
O=C(Nc1ccc2nn(-c3ccccc3)nc2c1)c1cccnc1,31%
Cc1ccnc(SCCn2c(Br)nc3c2c(=O)[nH]c(=O)n3C)n1,2%
CC(=NCc1ccc2c(c1)OCO2)C1=C(O)c2ccccc2C1=O,-5%
CCN(CC)CCCNC(=O)c1sc2nc(-c3ccc(F)cc3)cn2c1C,36%
COC(=O)CNC(=O)C1(C)C=CC2(CCCCC2)N1C(C)=O (stereo not drawn),8%
CCC(=O)c1ccc(OCC(=O)N2CCc3cc(OC)c(OC)cc3C2)cc1,54%
Cc1csc(NC(=O)C2CCC(C)(C(=O)O)C2(C)C)n1 (stereo not drawn),-10%
Cc1ccc(-c2noc(-c3ccccc3C(=O)N3CCN(C)CC3)n2)cc1,99%
CCNc1nc(OCCNS(=O)(=O)c2cc(C)ccc2C)nc(N(C)C)n1,33%
Cc1cc(NC(=O)CSc2nc3ccccc3c(=O)n2Cc2ccccc2)no1,-20%
O=C(Nc1ncccn1)c1cccs1,-10%
CC1(C)CC(CC(=O)Nc2ccccn2)C(=O)O1 (stereo not drawn),6%
CCOC(=O)c1ccc(NC(=O)c2cccc(S(=O)(=O)N3CCOCC3)c2)cc1,52%
O=C(CCc1nc(-c2ccccc2F)no1)NCCN1CCc2ccccc2C1,31%

# By substructure, the entries above with bromine.
SMILES,AmpC inh no det
O=C(O)CCC(=O)Nc1ccc(Br)cn1,1%
CC1(C)CC(=O)C2=C(C1)NC(=O)CC2c1cc2c(cc1Br)OCO2 (stereo not drawn),-6%
CCOC(=O)c1sc(NC(=O)c2ccc(Br)o2)cc1C,-23%
Cc1ccnc(SCCn2c(Br)nc3c2c(=O)[nH]c(=O)n3C)n1,2%

# Arranged by formula weight (ascending): 5 of the compounds above
SMILES,AmpC inh no det
CC1(C)CC(CC(=O)Nc2ccccn2)C(=O)O1 (stereo not drawn),6%
Cc1csc(NC(=O)C2CCC(C)(C(=O)O)C2(C)C)n1 (stereo not drawn),-10%
Cc1ccc(-c2noc(-c3ccccc3C(=O)N3CCN(C)CC3)n2)cc1,99%
CCC(=O)c1ccc(OCC(=O)N2CCc3cc(OC)c(OC)cc3C2)cc1,54%
CCN(CC)CCCNC(=O)c1sc2nc(-c3ccc(F)cc3)cn2c1C,36%

# Other results follow.
SMILES,AmpC inh no det
COCCNc1nc(-c2cccc(NS(C)(=O)=O)c2)nc2ccccc12,26%
CN(C)CCN(Cc1ccc(Cl)cc1)c1ccccn1,18%[12.8 µM]
CCOC(=O)C1CCN(S(=O)(=O)c2c(C)n(C)c(=O)n(C)c2=O)CC1,35%
Cn1cccc1Cc1nnc(SCC(=O)NCc2ccccc2Cl)n1-c1ccc(F)cc1,107%
CCOc1ccc2c(c1)c1nnc(SCC3CCCO3)nc1n2C (stereo not drawn),139%
O=C(CSc1cccc2cccnc12)N1CCCC1,-8%
Cc1cccc(NC(=O)CN2C(=O)COc3ccc(Cl)cc32)c1,-20%
CC(=O)NC12CC3CC(C1)CC(C(=O)OCC(=O)Nc1ncc(Cl)cc1Cl)(C3)C2,11%
COc1ccc(C2=NOC(C(=O)NCc3ccc(F)cc3)C2)cc1 (stereo not drawn),8%
Cc1cc(SCC(=O)N2CCCC2)nc2ccccc12,37%
CCOc1ccc(-c2cc(NC(=O)Cn3ncc4c3-c3ccccc3OC4)on2)cc1OCC,36%
Cc1ccc(C)c(C(=O)CSc2nnnn2-c2cccnc2)c1,14%
Cc1ccc2nc(Cc3ccc(N)cc3)oc2c1,20%
